HCMV NEC inh: inhibitors of HCMV UL50-UL53 nuclear egress complex interaction | AID 1918969 | HTRF UL50-UL53 interaction, normalized percent inhibition | inhibition, % (no concentration beside the values) | actives 0.15% (n = 190,000);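 active = both replicates at 50% or more, plus weaker picks with an unusually low signal ratio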;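 also: stock transfer was 100 nL into about 20 µL; 0% = negative control wells and 100% = wells with untagged competitor protein; inactives centre near -12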
Sa growth inh: blocks Staphylococcus aureus growth | relative growth, % (concentration not given with the values) | S. aureus RN4220 growth, OD600, 20 h, 42 °C; active compounds read low | AID 720641 | actives 0.53% (n = 170,000);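 active = growth at 42 °C up to 50% and 20 or more points under that at 30 °C, or under 10% at both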;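 also: 300 nL library stock went into each well; scaled to the means of positive and negative controls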
GIV Gai3 FP: GIV-Galpha-i interaction inhibition | P08753 | percent of control (FP), % (concentration not given with the values) | Galpha-i3/FITC-GIV peptide fluorescence polarization, 90 min; active compounds read low; scaled: aluminum fluoride 0%, vehicle 100% | AID 1224905 | actives 0.42% (n = 210,000);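 active = replicate mean at 85% of control or lower, very high polarization wells dropped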;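 also: wells of about 15 µL received 100 nL stock; the first replicate is given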
Target sequence (P08753 whole entry, looked up): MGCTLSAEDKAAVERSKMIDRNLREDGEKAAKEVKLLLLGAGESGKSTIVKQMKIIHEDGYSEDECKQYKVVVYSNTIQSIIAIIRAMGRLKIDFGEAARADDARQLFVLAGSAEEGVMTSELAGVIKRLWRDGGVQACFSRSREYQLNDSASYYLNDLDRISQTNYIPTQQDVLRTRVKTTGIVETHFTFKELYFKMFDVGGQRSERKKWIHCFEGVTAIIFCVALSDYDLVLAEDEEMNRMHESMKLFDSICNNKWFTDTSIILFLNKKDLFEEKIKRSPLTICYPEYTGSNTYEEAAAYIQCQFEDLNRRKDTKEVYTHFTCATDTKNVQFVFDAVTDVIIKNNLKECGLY
Sa growth inh second temp: also measured in Sa growth inh; calls as there; relative growth, %; measured here: growth at 30 °C;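 optical density after 20 h as mean of two plates; 100% = untreated growth and lower means inhibition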
* marks the source's active call; other numbers are inactive results; & = joins results of further samples.

For Cc1nc2ccccc2c2c1C(=O)N(c1ccccc1)C2=O the results were HCMV NEC inh -55&-81, Sa growth inh 101, GIV Gai3 FP 97&103 and Sa growth inh second temp 94.
CCCc1cc(=O)[nH]c(Nc2cccc(Cl)c2Cl)n1 was read as HCMV NEC inh -9, Sa growth inh 102, GIV Gai3 FP 101 and Sa growth inh second temp 70.
c1csc(C2NCc3c(sc4c3CCCC4)-n3cccc32)c1 (stereo not drawn) was read as HCMV NEC inh -18, Sa growth inh 91, GIV Gai3 FP 107 and Sa growth inh second temp 85.
`COc1ccccc1CNC(=O)c1cc(C)nc2c1c(C)nn2-c1ccc(C)c(C)c1` gave HCMV NEC inh -13 and GIV Gai3 FP 99.
CC1CCN(C(=O)Cn2c(=O)n(CCCCCC(=O)NCc3ccccc3Cl)c(=O)c3sccc32)CC1 was read as HCMV NEC inh 19, Sa growth inh 101, GIV Gai3 FP 102 and Sa growth inh second temp 105.
Screening CCCn1c(=O)c(CC(=O)OCC)c(O)c2ccccc21 returned Sa growth inh 103, GIV Gai3 FP 106 and Sa growth inh second temp 98.
Screening CCOC(=O)N1CCN(C(=O)CSCC(=O)N=c2sc3ccccc3n2C)CC1 returned Sa growth inh 79, GIV Gai3 FP 99 and Sa growth inh second temp 82.
Screening c1ccc(OCCCn2c(COc3ccccc3)nc3ccccc32)cc1 returned HCMV NEC inh -21 and GIV Gai3 FP 98.
`CC(C)c1ccc(NC(=O)C(c2ccccc2)N2CCc3ccccc32)cc1` (stereo not drawn) gave Sa growth inh 90, GIV Gai3 FP 99 and Sa growth inh second temp 80.
For c1ccc(-c2noc(CNC3CCCC3)n2)cc1 the results were HCMV NEC inh -4, Sa growth inh 102, GIV Gai3 FP 105 and Sa growth inh second temp 87.
COc1cc(/C=C/C(=O)N(Cc2nnc(-c3ccc(Cl)cc3)o2)C2CCCC2)cc(OC)c1OC was read as HCMV NEC inh -9, Sa growth inh 111 and Sa growth inh second temp 107.
`COC(=O)CSCc1nc2ccccc2[nH]c1=O` gave HCMV NEC inh 57*, Sa growth inh 92, GIV Gai3 FP 212 and Sa growth inh second temp 91.
`CCCCOC(=O)/C(C#N)=C/c1ccc(-c2cccc(C(F)(F)F)c2)o1` gave HCMV NEC inh -43, Sa growth inh 99, GIV Gai3 FP 104 and Sa growth inh second temp 86.
Cc1nc2ncnn2c(C)c1CCC(=O)N1CCc2ccccc21 was read as HCMV NEC inh -4, Sa growth inh 123, GIV Gai3 FP 102 and Sa growth inh second temp 91.
`CCOC(=O)C1CCCN(S(=O)(=O)c2cc3c(cc2C)NC(=O)CO3)C1` (stereo not drawn) gave Sa growth inh 123, GIV Gai3 FP 105 and Sa growth inh second temp 98.
Screening O=C(O)/C=C/c1ccc(-c2ccc(Cl)cc2)o1 returned HCMV NEC inh -21, Sa growth inh 77 and Sa growth inh second temp 85.
`Cc1ccc(/C(N)=N/OC(=O)Oc2ccccc2)cc1` gave HCMV NEC inh 3, Sa growth inh 78, GIV Gai3 FP 107 and Sa growth inh second temp 104.
`O=C(C(Cc1ccccc1)n1cccc1)N1CCCCC1` (stereo not drawn) gave HCMV NEC inh -2, Sa growth inh 114, GIV Gai3 FP 101 and Sa growth inh second temp 95.
Screening Cc1cccc(-n2nc(C)c3c2NC2=C(C(=O)CCC2)C3c2ccccn2)c1 (stereo not drawn) returned HCMV NEC inh -19, Sa growth inh 78 and Sa growth inh second temp 67.
`CCOC(=O)c1c(C)c(C(=O)NCc2ccc(OC)cc2)c(C)n1C` gave Sa growth inh 89, GIV Gai3 FP 109 and Sa growth inh second temp 86.
O=C(c1ccc2c(=O)nc3c(-c4ccccc4)n[nH]n3c2c1)N1CCN(c2ccccn2)CC1 was read as HCMV NEC inh -14 and GIV Gai3 FP 106.
For O=C(C1Nc2ccccc2S(=O)(=O)N1)N1CCN(c2ccc(Cl)cc2)CC1 (stereo not drawn) the results were HCMV NEC inh -32 and GIV Gai3 FP 106.
For COc1ccccc1S(=O)(=O)N1CCNC(=O)C1 the results were HCMV NEC inh -8, Sa growth inh 96 and Sa growth inh second temp 99.
Screening CCOC(=O)c1ccc(NC(=O)CC2C(=O)N(c3ccccc3)C(=O)N2Cc2ccc(C)cc2)cc1 (stereo not drawn) returned HCMV NEC inh -21, Sa growth inh 100, GIV Gai3 FP 106 and Sa growth inh second temp 84.
`CCNC(=O)c1sc2ccccc2c1Cl` gave HCMV NEC inh 8, Sa growth inh 89, GIV Gai3 FP 107 and Sa growth inh second temp 92.
For Cc1ccccc1C(=O)Nc1cccc(NC(=O)c2ccc(-c3ccc(Cl)cc3Cl)o2)c1 the results were Sa growth inh 81, GIV Gai3 FP 110 and Sa growth inh second temp 90.
Cc1ccc(-c2csc(NC(=O)c3sc(COc4cccc(C)c4)nc3C)n2)cc1 was read as HCMV NEC inh -18 and GIV Gai3 FP 108.
Screening O=c1ccn(-c2ccc(-c3ccn[nH]3)cc2)cc1 returned HCMV NEC inh -2 and GIV Gai3 FP 103.
`Cc1cc(C(=O)N(Cc2ccco2)Cc2cccs2)no1` gave HCMV NEC inh -18, Sa growth inh 83 and Sa growth inh second temp 92.
For COc1ccc(CCNC(=O)c2c(-c3ccccc3)c(-c3ccccc3)n[nH]c2=O)cc1OC the results were HCMV NEC inh -33 and GIV Gai3 FP 107.

Quoted from the entries so far for reference:
`CCOC(=O)c1c(C)c(C(=O)NCc2ccc(OC)cc2)c(C)n1C` gave Sa growth inh 89, GIV Gai3 FP 109 and Sa growth inh second temp 86.
O=C(c1ccc2c(=O)nc3c(-c4ccccc4)n[nH]n3c2c1)N1CCN(c2ccccn2)CC1 was read as HCMV NEC inh -14 and GIV Gai3 FP 106.
For O=C(C1Nc2ccccc2S(=O)(=O)N1)N1CCN(c2ccc(Cl)cc2)CC1 (stereo not drawn) the results were HCMV NEC inh -32 and GIV Gai3 FP 106.
For COc1ccccc1S(=O)(=O)N1CCNC(=O)C1 the results were HCMV NEC inh -8, Sa growth inh 96 and Sa growth inh second temp 99.
Screening CCOC(=O)c1ccc(NC(=O)CC2C(=O)N(c3ccccc3)C(=O)N2Cc2ccc(C)cc2)cc1 (stereo not drawn) returned HCMV NEC inh -21, Sa growth inh 100, GIV Gai3 FP 106 and Sa growth inh second temp 84.
`CCNC(=O)c1sc2ccccc2c1Cl` gave HCMV NEC inh 8, Sa growth inh 89, GIV Gai3 FP 107 and Sa growth inh second temp 92.
For Cc1ccccc1C(=O)Nc1cccc(NC(=O)c2ccc(-c3ccc(Cl)cc3Cl)o2)c1 the results were Sa growth inh 81, GIV Gai3 FP 110 and Sa growth inh second temp 90.
Cc1ccc(-c2csc(NC(=O)c3sc(COc4cccc(C)c4)nc3C)n2)cc1 was read as HCMV NEC inh -18 and GIV Gai3 FP 108.
Screening O=c1ccn(-c2ccc(-c3ccn[nH]3)cc2)cc1 returned HCMV NEC inh -2 and GIV Gai3 FP 103.
`Cc1cc(C(=O)N(Cc2ccco2)Cc2cccs2)no1` gave HCMV NEC inh -18, Sa growth inh 83 and Sa growth inh second temp 92.
For COc1ccc(CCNC(=O)c2c(-c3ccccc3)c(-c3ccccc3)n[nH]c2=O)cc1OC the results were HCMV NEC inh -33 and GIV Gai3 FP 107.

Following part
For O=C(Cn1cc(SCc2cccc(Cl)c2)c2ccccc21)N1CCCCCC1 the results were Sa growth inh 134, GIV Gai3 FP 108 and Sa growth inh second temp 87.
For O=S(=O)(c1ccc(Br)cc1)N1CCC(n2cnc3cccnc32)CC1 the results were HCMV NEC inh -12 and GIV Gai3 FP 101.
Screening O=C(CSc1nnc(-c2cccc(Cl)c2)o1)N1CCc2ccccc21 returned HCMV NEC inh -8, Sa growth inh 106, GIV Gai3 FP 104 and Sa growth inh second temp 81.
Screening O=C(O)[C@H](Cc1ccccc1)N1Cc2ccccc2C1=O returned HCMV NEC inh 10, Sa growth inh 102, GIV Gai3 FP 103 and Sa growth inh second temp 95.
Cc1ccc(N2CC(NC(=O)c3ccc(S(=O)(=O)N4CCCC4)cc3)CC2=O)cc1 (stereo not drawn) was read as Sa growth inh 109, GIV Gai3 FP 100 and Sa growth inh second temp 81.
For CCOc1ccc(C/C(N)=N\n2cnnc2)cc1 the results were HCMV NEC inh -18, Sa growth inh 80, GIV Gai3 FP 100 and Sa growth inh second temp 102.
O=C(Cc1ccccc1)NNC(=S)Nc1ccccc1 was read as HCMV NEC inh -14, Sa growth inh 100, GIV Gai3 FP 96 and Sa growth inh second temp 83.
CCOc1ccc(NC(=O)NCCCN2CCN(c3ccc(OC)cc3)CC2)cc1 was read as HCMV NEC inh 3, Sa growth inh 111, GIV Gai3 FP 107 and Sa growth inh second temp 98.
Screening CCOC(=O)c1ccc(N=c2oc3ccccc3cc2C(=O)Nc2ccccc2)cc1 returned HCMV NEC inh -17 and GIV Gai3 FP 111.
Cc1ccccc1S(=O)Cc1ccc(C(=O)NCc2ccccc2Cl)o1 (stereo not drawn) was read as HCMV NEC inh -11, Sa growth inh 107, GIV Gai3 FP 103 and Sa growth inh second temp 88.
For CC12CC(c3ccccc3O1)C(/C(N)=N\NC(=O)c1ccc(F)cc1)C(=O)N2 (stereo not drawn) the results were HCMV NEC inh -4, Sa growth inh 101, GIV Gai3 FP 106 and Sa growth inh second temp 93.
`O=C1COCC(=O)N1CCc1c[nH]c2ccccc12` gave HCMV NEC inh -8, Sa growth inh 104, GIV Gai3 FP 105 and Sa growth inh second temp 95.
`CCn1c(C(=O)N2CCCC(C(=O)N3CCN(c4cccc(C)c4C)CC3)C2)cc2sccc21` (stereo not drawn) gave Sa growth inh 95, GIV Gai3 FP 107 and Sa growth inh second temp 45.
For CC1(C)CC(=O)NC(=Nc2ccc(Br)cc2)C(=O)C1 the results were HCMV NEC inh -6, Sa growth inh 82 and Sa growth inh second temp 103.
For C=CCNc1sc2c(N)nc(N)nc2c1C#N the results were HCMV NEC inh 2, Sa growth inh 98 and Sa growth inh second temp 73.
For Cn1c(=O)[nH]c(=O)c2c1nc(Sc1nc3ccccc3[nH]1)n2Cc1ccccc1Cl the results were HCMV NEC inh -26 and GIV Gai3 FP 109.
For CC1CCN(C(=O)c2cc3n(n2)C(C(F)(F)F)CC(c2ccco2)N3)CC1 (stereo not drawn) the results were HCMV NEC inh -25, Sa growth inh 105, GIV Gai3 FP 101 and Sa growth inh second temp 97.
For CS/C(=C(/C#N)S(=O)(=O)C(C)C)N1CCCC1 the results were HCMV NEC inh -30, Sa growth inh 100, GIV Gai3 FP 104 and Sa growth inh second temp 93.
O=C(c1ccc(N2CCc3ccccc32)s1)N1CCCCCC1 was read as HCMV NEC inh -25, Sa growth inh 74, GIV Gai3 FP 103 and Sa growth inh second temp 32.
`O=C(CN1CCc2sccc2C1c1cccs1)Nc1cc2[nH]c(=O)[nH]c2cc1Br` (stereo not drawn) gave HCMV NEC inh -10, Sa growth inh 84 and Sa growth inh second temp 107.
For Cc1cc(NC(=O)C2CCN(C(=O)c3cccn3-c3cccnc3)CC2)ccc1Br the results were HCMV NEC inh -21 and GIV Gai3 FP 109.
NC1=NC(=O)C(C(=O)NC2(C(F)(F)F)Oc3cc(Cl)c(Cl)cc3O2)S1 (stereo not drawn) was read as HCMV NEC inh 9, Sa growth inh 57 and Sa growth inh second temp 62.
For CSc1ccc(C2C(C(=O)N3CCCCC3)=C(C)NC3=C2C(=O)CCC3)cc1 (stereo not drawn) the results were HCMV NEC inh -16, Sa growth inh 99, GIV Gai3 FP 100 and Sa growth inh second temp 88.
Screening CCOC(=O)C1=C(C)C/C(=N\NC(=O)c2ccccc2O)CC1 returned HCMV NEC inh 2, Sa growth inh 116 and Sa growth inh second temp 90.
CN(Cc1ccco1)C(=O)C(Cc1ccccc1)NS(=O)(=O)c1ccc2c(c1)CCC(=O)N2 (stereo not drawn) was read as HCMV NEC inh -30, Sa growth inh 93, GIV Gai3 FP 103 and Sa growth inh second temp 79.
For CCN1CNC(=S)N(c2ccccc2)C1 the results were Sa growth inh 105, GIV Gai3 FP 107 and Sa growth inh second temp 88.
Nc1cc(S(=O)(=O)C(F)(F)F)cc(S(=O)(=O)C(F)(F)F)c1 was read as HCMV NEC inh -2, Sa growth inh 84, GIV Gai3 FP 113 and Sa growth inh second temp 112.
Screening Cc1ccc(S(=O)(=O)NC2=NCN(CCOC(=O)c3ccccc3)CN2)cc1 returned HCMV NEC inh 16, Sa growth inh 96, GIV Gai3 FP 110 and Sa growth inh second temp 83.
`Cc1ccc(-n2c(SCC(N)=O)nc3c(oc4ccccc43)c2=O)cc1` gave HCMV NEC inh -14, Sa growth inh 109, GIV Gai3 FP 103 and Sa growth inh second temp 75.
For CC12C=CC3(CN(Cc4ccccc4)C(=O)C3C1C(=O)NCc1ccco1)O2 (stereo not drawn) the results were Sa growth inh 93, GIV Gai3 FP 102 and Sa growth inh second temp 79.
`CN(C)CCOC(=O)c1cnn2c(C(F)(F)F)cc(-c3ccc(F)cc3)nc12` gave HCMV NEC inh -19 and GIV Gai3 FP 107.
For Cc1ccc(NC(=O)C2CCCN(c3nnc(-n4c(C)ccc4C)s3)C2)cc1Cl (stereo not drawn) the results were HCMV NEC inh 6, Sa growth inh 102, GIV Gai3 FP 103 and Sa growth inh second temp 94.
For COc1ccc2c(Sc3ccc(C)cc3)c(C(=O)NC(C)c3ccccc3)[nH]c2c1 (stereo not drawn) the results were HCMV NEC inh -21, Sa growth inh 115, GIV Gai3 FP 97 and Sa growth inh second temp 95.

Source: PubChem (ICCB-Longwood Screening Facility, Harvard Medical School)
